KCNQ2 enhance: potentiators of rat KCNQ2 potassium channel | actives 0.54% (n = 310,000) | CHO-K1 KCNQ2, FluxOR thallium flux fluorescence; stronger effect = higher value | B-score at 10 µM | O88943;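 active = fluorescence ratio B-score at least 3 SD of library B-scores, with initial fluorescence B-score within 3 SD, cut at about 5.3 in these data; same plate scores as AID 2156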;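 also: B-score of peak minus minimum over baseline fluorescence ratio after K+ and Tl+ stimulus; positive B-score means potentiation of KCNQ2 with more thallium influx and brighter signal; only the inactives scoring about 0 or higher are listed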
Target sequence (O88943 whole entry, looked up): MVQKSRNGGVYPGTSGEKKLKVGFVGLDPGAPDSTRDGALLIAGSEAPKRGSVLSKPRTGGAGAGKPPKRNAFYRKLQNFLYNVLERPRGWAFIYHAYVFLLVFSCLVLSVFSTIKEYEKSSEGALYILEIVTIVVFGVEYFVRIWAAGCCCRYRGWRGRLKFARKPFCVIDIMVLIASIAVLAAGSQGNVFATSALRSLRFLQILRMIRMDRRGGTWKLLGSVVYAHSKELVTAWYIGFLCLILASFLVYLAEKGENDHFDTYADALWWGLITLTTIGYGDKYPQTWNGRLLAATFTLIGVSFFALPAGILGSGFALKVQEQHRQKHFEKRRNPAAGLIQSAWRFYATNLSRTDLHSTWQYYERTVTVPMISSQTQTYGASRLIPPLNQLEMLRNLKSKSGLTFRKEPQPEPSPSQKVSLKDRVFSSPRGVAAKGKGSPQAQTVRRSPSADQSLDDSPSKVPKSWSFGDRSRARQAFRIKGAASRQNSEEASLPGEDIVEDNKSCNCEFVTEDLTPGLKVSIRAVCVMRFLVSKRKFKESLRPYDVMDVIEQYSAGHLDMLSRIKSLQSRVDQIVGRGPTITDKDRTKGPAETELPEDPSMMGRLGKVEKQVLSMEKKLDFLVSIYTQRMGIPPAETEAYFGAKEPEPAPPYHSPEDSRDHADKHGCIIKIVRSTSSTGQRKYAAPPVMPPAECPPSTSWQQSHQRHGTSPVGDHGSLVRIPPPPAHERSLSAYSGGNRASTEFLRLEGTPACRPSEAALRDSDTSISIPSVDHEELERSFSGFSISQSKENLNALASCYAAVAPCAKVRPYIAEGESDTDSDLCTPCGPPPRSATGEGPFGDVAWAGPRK
KCNQ2 enhance baseline: recorded beside KCNQ2 enhance, whose call it bears; B-score; compound at 10 µM; measured here: initial fluorescence intensity artifact check;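 brightness before thallium and not channel activity; 0 = typical well and far values either way flag optical interference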
An asterisk follows results filed as active. An excerpt. The share of hits here may be higher or lower than overall.

Results follow in this order: KCNQ2 enhance	KCNQ2 enhance baseline
O=C(Nc1ccc2c(c1)OCCO2)c1c(F)cccc1F
  1.04	-0.63
COc1ccc(S(=O)(=O)Nc2cc(OC)c(NC(=O)c3ccco3)cc2OC)cc1
  0.14	-1.55
CC(NC(=O)CN(C)S(=O)(=O)c1ccc(Br)s1)c1ccccc1 (stereo not given)
  1.91	-0.48
CNC(=S)N/N=C/c1cn(CCOc2ccc(OC)cc2)c2ccccc12
  0.05	-0.15
COc1ccc2cc([C@H](C)C(=O)O)ccc2c1
  0.04	-1.22
CCn1c(SCC(=O)N2CCN(c3ccc(F)cc3)CC2)nnc1-c1ccncc1
  0.02	0.04
COC(=O)CSc1nc2c(c(=O)n(C)c(=O)n2C)n1CCCc1ccccc1
  0.17	-0.87
COc1ccc(CCNc2ncccc2C#N)cc1OC
  0.45	0.74
Cn1c(N)c(C(=O)COC(=O)c2ccc(Cl)c(S(=O)(=O)N3CCCC3)c2)c(=O)n(C)c1=O
  0.21	0.02
O=C(OCC(=O)N(Cc1ccccc1)C1CCS(=O)(=O)C1)c1cc2c(s1)CCCC2 (stereo not given)
  0.41	-1.11
CCOC(=O)C1=C(C)NC(=O)NC1/C(C)=C/c1ccccc1 (stereo not given)
  0.45	0.93
CCOc1ccccc1NC(=O)CCS(=O)(=O)c1cccc2nsnc12
  0.46	-3.32
COc1cc(/C=C/C(=O)O)cc(S(=O)(=O)Nc2cccc(S(=O)(=O)N3CCOCC3)c2)c1OC
  0.88	-0.57
Cc1csc(C(=O)NCC(=O)NNC(=O)c2cccc(Cl)c2)c1
  0.14	-0.22
COc1ccc(Cl)cc1S(=O)(=O)N1CCN(C)CC1
  0.17	0.67

Next section:
Results follow in this order: KCNQ2 enhance	KCNQ2 enhance baseline
O=C(N/N=C/c1cccn1-c1ccccc1)c1ccncc1
  0.52	0.53
COc1cc(/C=C/C(=O)NCC2CCCCC2)cc(OC)c1OC
  0.94	-0.4
O=C(NCCc1csc(-c2cccnc2)n1)c1ccccc1Br
  0.42	-1.01
CCOC(=O)C1=C(C)N(C)C(=S)NC1c1ccc(Cl)cc1 (stereo not given)
  0.39	0.92
CC(=O)Nc1ccc(NC(=S)NC(=O)c2ccc([N+](=O)[O-])c(C)c2)cc1
  0.68	-3.42
CCCOC(=S)N/C(=N\S(=O)(=O)c1ccccc1)c1ccccc1
  2.07	-0.73
O=C(COC(=O)COc1ccc(Cl)cc1)NC1CCCCC1
  1.08	-1.3
CCOC(=O)C1=C(C)NC(c2cccs2)C(=O)N1 (stereo not given)
  0.85	-0.64
COc1ccc(-c2nn(-c3ccccc3)cc2CNCCN2CCOC2=O)c(F)c1
  1.74	-1.09
CCN(CC)c1ccc(NC(=O)CN2CCN(CC(=O)Nc3ccc(OC)cc3)CC2)cc1
  0.67	0.88
COCc1nnc(NC(=O)C2CC(=O)N(C3CCCCC3)C2)s1 (stereo not given)
  0.62	-1.85
COc1ccc(NC(=O)C2CCN(c3cnccn3)CC2)cc1Cl
  0.27	-2.49
CCCNC(=O)NC(=O)COC(=O)c1ccc(S(=O)(=O)N(C)c2ccccc2OC)cc1
  0.31	0.73
NC(=O)CC(O)c1cccc(Cl)c1 (stereo not given)
  0.98	-1.54
COc1ccc(-n2cc(C(=O)c3cc(Cl)ccc3O)cc(C#N)c2=O)cc1
  0.02	-0.42

(cont.)
Results follow in this order: KCNQ2 enhance	KCNQ2 enhance baseline
COc1ccc(S(=O)(=O)N2CCCN(CC(=O)Nc3cc(NC(C)=O)ccc3OC)CC2)cc1
  0.03	1.97
O=C(NCCc1ccc(Cl)cc1)C12CC3CC(CC(O)(C3)C1)C2
  1.18	1.11
C[N+](C)(C)CCOP(=O)(O)OP(=O)([O-])OC[C@H]1O[C@@H](n2ccc(N)nc2=O)[C@H](O)[C@@H]1O
  1.21	0.38
O=C(CN1C(=O)COc2ccccc21)NC1CCCC1
  3.02	-0.12
O=C(Cn1cc(-c2nnnn2-c2ccc(Cl)cc2)c(=O)c2ccccc21)c1ccccc1
  1.25	-1.36
COc1cccc(/C=C(\C(=O)O)c2ccccc2)c1
  0.05	-0.89
COc1ccc(C(=O)O/N=C(/c2ccccc2)c2ccncc2)cc1OC
  0.6	-0.95
Cc1cc(=O)n2[nH]nnc2n1
  1.02	1.34
Cc1ccccc1Nc1nc2ccccc2s1
  0.83	-0.5
Cc1ccc(S(=O)(=O)Cc2ccc(C(=O)N3CCCCC3C)cc2)cc1 (stereo not given)
  0.63	1.29
Cc1ccc(/C=C2\C(=O)NC(=O)N2C)o1
  2.08	-0.35
Fc1ccc(N2CCN(C(=S)NCC3CCCO3)CC2)cc1 (stereo not given)
  0.93	-0.89
Cc1ccc(CNS(=O)(=O)c2c(C)[nH]c(C)c2C(=O)N2CCCC2)cc1
  1.31	0.5
CC1=NN(C(=O)Cc2ccccc2)C(O)(c2cccnc2)C1 (stereo not given)
  2.5	-0.16
CSc1ncccc1C(=O)OCc1cccc([N+](=O)[O-])c1
  0.54	1.29

(more compounds)
Results follow in this order: KCNQ2 enhance	KCNQ2 enhance baseline
Cc1c(CC(=O)O)c(=O)oc2cc3c(cc12)CCC(C)(C)O3
  1.25	-1.09
N#Cc1ccc(OCC(O)CN2CCN(CC(O)COc3ccc(C#N)cc3)CC2)cc1 (stereo not given)
  1.53	-0.34
Cc1cc(C)c(-c2c(O)c3ccccc3n(C)c2=O)c(C)c1
  0.99	1.8
COc1cccc(OCCc2c(C)n[nH]c2C)c1
  1.16	1.55
Cc1ccc(Nc2oc(C)nc2C#N)cc1
  0.76	-0.9
O=C(COC(=O)Cc1ccc(-c2ccccc2)cc1)NCc1ccccc1
  0.3	-0.34
COc1ccc(-c2ccc(CCC(=O)O)n2CC(C)C)cc1
  1	-0.02
O=[N+]([O-])c1ccc(-n2nncc2-c2ccc(Cl)cc2)cc1
  0.3	-1.33
CCOC(=O)CC1C(=O)NCCN1Cc1ccc(OC)c(OC)c1 (stereo not given)
  0.61	-0.41
CN(c1ccccc1)c1cc(=O)[nH]c(=O)[nH]1
  0.13	0.49
Cc1ccc(CNC(=O)CN(C)S(=O)(=O)c2cccc3cccnc23)cc1
  1.22	0.56
O=C(Cn1nnc(-c2ccncc2)n1)N1CCc2ccccc21
  0.1	0.42
CCOCCc1nnc(NC(=O)c2ccc(OC)c(OC)c2)s1
  0.23	0.93
CC(NC(=O)c1ccccc1F)c1nnc(SCC(=O)NC2CCCC2)n1C (stereo not given)
  0.16	1.42
Cc1cc(C)cc(N(CCC#N)C(=O)COC(=O)CN2C(=O)NC(C)(C)C2=O)c1
  0.36	0.36

The list continues:
Results follow in this order: KCNQ2 enhance	KCNQ2 enhance baseline
COC(=O)C1=C(C(=O)c2ccc(C)cc2)C(c2ccc(O)c(OC)c2)n2nnnc2N1 (stereo not given)
  1.39	-0.01
COc1ccc(NC(=O)Cn2nnc(-c3ccccc3F)n2)cc1
  0.63	1.74
O=C(COc1ncnc2cc([N+](=O)[O-])ccc12)NCc1ccc2c(c1)OCO2
  0.48	0.46
C/C(=N\NC(=O)c1cc(-c2ccc(C)s2)[nH]n1)c1ccncc1
  0.66	-0.45
CC(C)C1Oc2ccccc2N(CC(=O)N2CCOCC2)C1=O (stereo not given)
  0.25	0.06
CC(=O)Nc1sc2c(c1CN1CCN(c3ccccn3)CC1)CCCC2
  3.87	0.69
CC(C)=NNc1cc([N+](=O)[O-])cc2c1C(=O)N(C)S2=O (stereo not given)
  0.49	-2.71
O=C(NNc1nc2ccccc2s1)Nc1ccccc1
  0.68	-1.83
O=c1nc(C(F)(F)F)nc2ccccn12
  0.68	-0.01
CCOC(=O)Cc1ncccc1C(=O)Nc1ccc(OC)cc1
  0.39	0.23
Cc1ccc(C(=O)N2N=C(c3ccccc3O)CC2c2ccccc2)cc1 (stereo not given)
  0.28	-0.13
CCN(CC)S(=O)(=O)c1ccc(-n2c(=O)c(C(C)C)c(C)n2C)cc1
  0.14	-1.36
C=CCn1c(C)cc(C(=O)CN2C(=O)NC3(CCCc4ccccc43)C2=O)c1C (stereo not given)
  0.31	0.03
Cc1ccccc1NC(=O)Cc1nc(COC(=O)c2ccc(O)cc2O)cs1
  0.04	-0.16
CCOC(=O)C1CCCN(Cc2ccc3c(c2)OCO3)C1 (stereo not given)
  0.03	-1.07

Compound profiles (already shown). Values in the order: KCNQ2 enhance, KCNQ2 enhance baseline
CC(C)=NNc1cc([N+](=O)[O-])cc2c1C(=O)N(C)S2=O (stereo not given) is listed as 0.49, -2.71
O=c1nc(C(F)(F)F)nc2ccccn12 is listed as 0.68, -0.01
C/C(=N\NC(=O)c1cc(-c2ccc(C)s2)[nH]n1)c1ccncc1 is listed as 0.66, -0.45
O=C(COc1ncnc2cc([N+](=O)[O-])ccc12)NCc1ccc2c(c1)OCO2 is listed as 0.48, 0.46
CCOC(=O)C1CCCN(Cc2ccc3c(c2)OCO3)C1 (stereo not given) is listed as 0.03, -1.07

Reformatted field by field: entries from further up
CC(C)C1Oc2ccccc2N(CC(=O)N2CCOCC2)C1=O (stereo not given)
  KCNQ2 enhance: 0.25
  KCNQ2 enhance baseline: 0.06
CC(=O)Nc1sc2c(c1CN1CCN(c3ccccn3)CC1)CCCC2
  KCNQ2 enhance: 3.87
  KCNQ2 enhance baseline: 0.69

Following part
Results follow in this order: KCNQ2 enhance	KCNQ2 enhance baseline
C=CCn1c(O)c(C(CC)=NCCN2CCOCC2)c(=O)[nH]c1=O
  0.15	-1.48
Cn1nc(C(F)(F)F)cc1C(=O)Nc1ccc(Cl)cc1
  1.39	-0.42
CN1CCN(c2nc(-c3ccccc3Cl)nc3ccccc23)CC1
  0.3	-1.31
COC(=O)C(C)n1cnc2c(nnn2-c2cccc(Cl)c2)c1=O (stereo not given)
  1.29	0.99
CC(C)(CO)CNC(=O)CCc1nnc(CCCc2ccccc2)o1
  1.26	0.37
Cc1ccc(CC2S/C(=N/N=C/c3ccco3)NC2=O)cc1 (stereo not given)
  0.51	-0.01
CC(C)N(C(=O)Cn1c(SCC(=O)Nc2nccs2)nc2ccccc21)C(C)C
  0.28	1.67
Cc1cc(Br)c(NC(=O)COC(=O)C2CC2C)c(Br)c1 (stereo not given)
  3.5	-1.41
Fc1ccc(NC(=S)N/N=C/c2cccc(Br)c2)c(F)c1
  1.83	-0.08
Cc1ccc(S(=O)(=O)N(C)C)cc1NC(=O)COC(=O)c1c(-c2ccccc2)noc1C
  0.48	1.11
O=C(O)CC1Sc2ccccc2NC1=O (stereo not given)
  0.02	-0.92
Cc1ccc(Cn2c(N3CCNCC3)nc3c2c(=O)[nH]c(=O)n3C)cc1
  0.55	1.12
C=CCn1c(C)cc(C(=O)COc2ccc(C)nc2[N+](=O)[O-])c1C
  0.93	0.31
Cc1ccc(S(=O)(=O)/N=C2/NC(=O)/C(=C/c3ccc(Br)o3)S2)cc1
  2.89	-2.25
Cc1ccc(-n2c(SCC(=O)NCCC3=CCCCC3)nc3n[nH]c(C)c3c2=N)cc1Cl
  0.1	0.68

Carrying on.
Results follow in this order: KCNQ2 enhance	KCNQ2 enhance baseline
C=CCNC(=S)NNC(=O)c1cccc2ccccc12
  0.07	0.97
Cc1nc(SCc2cccc(C(=O)O)c2)nc2c1CCCC2
  0.88	-1.93
CC(C)[C@H](NC(=O)NCc1ccco1)C(=O)O
  0.01	-0.02
O=C(NN(C(=O)c1ccccc1)c1ccccc1)c1ccccc1
  0.46	-0.37
Cc1ccc(C(=O)Cn2nc(C(=O)O)c3ccccc3c2=O)cc1C
  0.6	-0.72
C#CCOCCOCCOCCNc1nc(N2CCOCC2)nc(N2CCN(C(=O)[C@H](CCCCN)n3cc([C@@H](N)CO)nn3)CC2)n1
  1.32	1.46
CC(=O)Nc1ccc(-c2ccc3nnc(C)n3n2)cc1
  0.79	-0.02
O=C(CN1CCOCC1)Nc1ccc(S(=O)(=O)N2CCCCCC2)cc1
  0.76	1.5
CC1CCCCC1NC(=O)c1ccc(CNc2c(N3CCCC3)c(=O)c2=O)cc1 (stereo not given)
  0.37	3.79
COc1ccc2c(c1)SCC(=O)N2C
  0.84	0.01
CN(C)c1ccc(/C=N/NC(=O)C2CC2c2ccccc2)cc1 (stereo not given)
  1	-0.27
CC1CCCC(CC(=O)O)(CC(=O)O)C1 (stereo not given)
  0.38	-0.54
COc1ccc(-n2ccc3ccccc32)cc1
  0.14	0.91
CCCCNC(=O)c1c[nH]c2ccc(S(=O)(=O)N3CCOCC3)cc2c1=O
  1.4	-0.3
O=C(Nc1nc2c(Cl)ccc(Cl)c2s1)c1ccco1
  2.4	1.21

(cont.)
Results follow in this order: KCNQ2 enhance	KCNQ2 enhance baseline
O=C(O)c1ccc(N=Nc2c(O)[nH]c3ccc(Br)cc23)cc1
  2.3	2.77
CCn1c(SCC(=O)Nc2cccc(NC(=O)c3cccs3)c2)nnc1-c1ccncc1
  1.51	0.02
CC(=O)c1ccc(NC(=O)CN(c2c(C)cccc2C)S(C)(=O)=O)cc1
  0.22	0.08
CCN(C(=O)Cn1c([N+](=O)[O-])cnc1C)c1ccccc1
  0.15	0.06
CN(C)c1nc(N)ncc1-c1ccc(Oc2ccccc2)cc1
  1.26	2.13
CCC(Sc1ncccc1C(=O)OC(C)C)C(=O)NCc1ccco1 (stereo not given)
  0.85	-0.08
O=C1CCC(=O)N1c1ccc(NCc2ccccc2Cl)c([N+](=O)[O-])c1
  0.03	0.03
